Yeast UUG start – yeast start codon fidelity modulation. AID 602363. activity score, % at 18.7 µM. S. cerevisiae UUG-firefly luciferase reporter, luminescence/redox ratio. 350,000 compounds, 0.13% hits;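 active = replicate mean at a twofold rise or more, about +100% in these data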;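 also: firefly luciferase made from a UUG start codon reports start codon fidelity; reporter light over untreated wells divided by growth signal over untreated wells; some hits fall short of that in this replicate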
Numbers without * were called inactive. Only part of the results is shown, so the mix of outcomes need not match the whole.

No.	smiles	Yeast UUG start
1	Cc1cccc(S(=O)(=O)N2CC[C@@H]3[C@@H](CO)N(C)c4ccc(Br)cc4[C@@H]32)c1	3.9
2	Cc1ccccc1-c1ccc([C@@H]2[C@H]3CN(C(=O)Nc4ccc(F)cc4)CCCCN3[C@H]2CO)cc1	10.8
3	O=C(CN1CCOCC1)N1CCCCN2[C@H](CO)[C@H](c3ccc(-c4ccccc4)cc3)[C@@H]2C1	-13.1
4	C[C@@H]1CN([C@@H](C)CO)C(=O)Cc2cc(NC(=O)Nc3cccc4ccccc34)ccc2O[C@@H]1CN(C)C(=O)Nc1ccccc1	-12.5
5	Cc1noc(C)c1NC(=O)N(C)C[C@@H]1Oc2c(NC(=O)Nc3ccc4c(c3)OCO4)cccc2C(=O)N([C@H](C)CO)C[C@H]1C	-5.3
6	Cc1noc(C)c1NC(=O)N(C)C[C@@H]1Oc2ccc(NS(=O)(=O)c3cn(C)cn3)cc2C(=O)N([C@H](C)CO)C[C@@H]1C	-10.4
7	O=C(Nc1ccccc1F)N1C[C@H]2[C@@H](c3ccccc31)[C@H](CO)N2C(=O)c1ccccn1	35.0
8	C[C@H]1CN([C@@H](C)CO)C(=O)c2cccc(NC(=O)C3CCOCC3)c2O[C@H]1CN(C)C	-2.9
9	C[C@@H]1CN([C@H](C)CO)C(=O)c2cccc(NS(=O)(=O)c3ccccc3)c2O[C@H]1CN(C)CC1CC1	16.6
10	O=C(C1CC1)N1CCCCN2[C@H](CO)[C@@H](c3ccc(C#CC4(O)CCCC4)cc3)[C@@H]2C1	18.3
11	C[C@@H]1CN([C@H](C)CO)C(=O)c2cccc(NC(=O)Nc3ccccc3)c2O[C@H]1CN(C)C(=O)NC1CCCCC1	17.8
12	CCS(=O)(=O)N1CCCCN2[C@H](C1)[C@@H](c1ccc(C#CC(C)(C)O)cc1)[C@@H]2CO	-10.5
13	O=C(C1CCOCC1)N1C[C@@H]2[C@H](c3ccccc31)[C@@H](CO)N2C(=O)Cc1ccccc1	-4.1
14	Cc1cccc(-c2ccc([C@H]3[C@@H](CO)N4CCCCN(S(=O)(=O)c5ccccc5C)C[C@@H]34)cc2)c1	14.7
15	COc1cccc(S(=O)(=O)N2CC[C@@H]3[C@H](CO)Nc4ccc(C#Cc5cccnc5)cc4[C@@H]32)c1	-6.9
16	C[C@@H]1CN([C@H](C)CO)C(=O)c2cccc(NS(=O)(=O)c3cccs3)c2O[C@H]1CN(C)C(=O)Nc1ccc2c(c1)OCO2	15.0
17	COc1ccc(CN(C)C[C@@H]2Oc3c(NS(=O)(=O)c4ccc(Cl)cc4)cccc3C(=O)N([C@H](C)CO)C[C@@H]2C)cc1	-5.7
18	C[C@H]1CN([C@@H](C)CO)C(=O)Cc2cc(NC(=O)Cn3cnnn3)ccc2O[C@@H]1CN(C)Cc1ccc(-c2ccccc2)cc1	3.7
19	O=C(C[C@@H]1CC[C@H]2[C@@H](COC[C@H](O)CN2Cc2ccccc2F)O1)NCc1ccccc1F	4.4
20	COc1cccc(-c2ccc([C@H]3[C@@H](CO)N4CCCCN(S(=O)(=O)c5cn(C)cn5)C[C@H]34)cc2)c1	11.1
21	CC(C)CC#Cc1ccc([C@@H]2[C@H](CO)N3CCCCN(S(=O)(=O)Cc4ccccc4)C[C@@H]23)cc1	6.1
22	COc1ccc(C#Cc2ccc([C@@H]3[C@H]4CN(C(=O)c5ccncc5)CCCCN4[C@H]3CO)cc2)cc1	-3.0
23	Cc1ccc(S(=O)(=O)Nc2ccc3c(c2)C(=O)N([C@@H](C)CO)C[C@H](C)[C@H](CN(C)C)O3)cc1	-9.4
24	CCCC#Cc1ccc([C@H]2[C@@H](CO)N3CCCCN(S(C)(=O)=O)C[C@@H]23)cc1	10.1
25	CO[C@H]1CN(C)C(=O)c2ccc(NC(=O)C3CCOCC3)cc2OC[C@@H](C)N(Cc2cccnc2)C[C@@H]1C	-0.5
26	O=C(NCC1CC1)[C@H]1[C@H](CO)[C@H]2Cn3c(ccc(-c4ccccc4)c3=O)[C@@H]1N2Cc1nccs1	8.5
27	C[C@@H]1CN([C@@H](C)CO)C(=O)Cc2cc(NS(=O)(=O)c3cn(C)cn3)ccc2O[C@H]1CN(C)Cc1ccncc1	-1.0
28	COc1cccc(C(=O)Nc2ccc3c(c2)C(=O)N(C)C[C@H](OC)[C@@H](C)CN(C(=O)C2CCCC2)[C@H](C)CO3)c1	1.8
29	COCC(=O)Nc1ccc2c(c1)OC[C@H](C)N(C)C[C@@H](C)[C@H](OC)CN(C)C2=O	-4.0
30	CCC(=O)N1[C@H](CO)[C@H]2c3ccccc3N(C(=O)NC(C)C)C[C@H]21	9.3

Five entries drawn at random from those above:
No.	smiles	Yeast UUG start
9	C[C@@H]1CN([C@H](C)CO)C(=O)c2cccc(NS(=O)(=O)c3ccccc3)c2O[C@H]1CN(C)CC1CC1	16.6
28	COc1cccc(C(=O)Nc2ccc3c(c2)C(=O)N(C)C[C@H](OC)[C@@H](C)CN(C(=O)C2CCCC2)[C@H](C)CO3)c1	1.8
24	CCCC#Cc1ccc([C@H]2[C@@H](CO)N3CCCCN(S(C)(=O)=O)C[C@@H]23)cc1	10.1
7	O=C(Nc1ccccc1F)N1C[C@H]2[C@@H](c3ccccc31)[C@H](CO)N2C(=O)c1ccccn1	35.0
30	CCC(=O)N1[C@H](CO)[C@H]2c3ccccc3N(C(=O)NC(C)C)C[C@H]21	9.3

The list goes on.
No.	smiles	Yeast UUG start
31	C/C=C/c1ccc([C@@H]2[C@@H](CO)N3CCCCN(C(=O)Nc4ccccc4F)C[C@@H]23)cc1	15.7
32	CCCNC(=O)N1C[C@@H]2[C@H](c3ccccc31)[C@@H](CO)N2C(=O)Nc1ccc(F)cc1	-0.1
33	CCC(=O)N1CCCCN2[C@H](CO)[C@H](c3ccc(-c4cccc(C#N)c4)cc3)[C@@H]2C1	7.5
34	C[C@@H](O)C#Cc1ccc([C@H]2[C@H](CO)N3CCCCN(S(=O)(=O)Cc4ccccc4)C[C@@H]23)cc1	21.5
35	COc1ccc(S(=O)(=O)Nc2cccc3c2O[C@@H](CN(C)C(=O)Nc2ccc(F)cc2)[C@@H](C)CN([C@H](C)CO)C3=O)cc1	9.2
36	CO[C@@H]1CN(C)C(=O)c2cc(NS(C)(=O)=O)ccc2OC[C@H](C)N(C(=O)C2CC2)C[C@H]1C	10.1
37	CN(C)C(=O)c1ccc(-c2ccc([C@@H]3[C@@H](CO)N4CCCCN(C(=O)C5CC5)C[C@H]34)cc2)cc1	-7.8
38	CN1C(=O)c2cc(NC(=O)NCc3ccccc3)ccc2OC[C@H]2O[C@H](CC(=O)NCC3CCCCC3)CC[C@H]21	3.2
39	C[C@H](CO)N1C[C@H](C)[C@H](CN(C)C(=O)Nc2ccccc2)Oc2ccc(NC(=O)Nc3ccc(C(F)(F)F)cc3)cc2C1=O	-1.6
40	O=C(C[C@@H]1C[C@H]2c3cc(NC(=O)c4cccnc4)ccc3O[C@H]2[C@@H](CO)O1)NCc1ccncc1	-8.6
41	CO[C@H]1CN(C)C(=O)c2ccc(NC(=O)c3cc(C)on3)cc2OC[C@H](C)N(CC2CC2)C[C@H]1C	-16.0
42	COc1ccc(S(=O)(=O)N(C)C[C@H]2Oc3ccc(NC(=O)CCCN(C)C)cc3C(=O)N([C@H](C)CO)C[C@H]2C)cc1	10.6
43	C/C=C/c1ccc([C@H]2[C@@H](CO)N(C(=O)CC)[C@H]2CNC(=O)c2ccncc2)cc1	9.8
44	C[C@@H]1CN([C@H](C)CO)C(=O)c2cc(NS(=O)(=O)c3cn(C)cn3)ccc2O[C@H]1CN(C)Cc1ccc(-c2ccccc2)cc1	-7.0
45	COc1ccc(NC(=O)N2CCCCN3[C@@H](CO)[C@@H](c4ccc(-c5ccccc5F)cc4)[C@@H]3C2)cc1	3.8
46	C[C@H]1CN([C@@H](C)CO)C(=O)c2c(c3ccccc3n2C)-c2ccccc2CO[C@H]1CN(C)Cc1ccc(C(=O)O)cc1	3.7
47	COc1ccccc1NC(=O)N1CCCCN2[C@H](CO)[C@H](c3ccc(-c4ccccc4)cc3)[C@@H]2C1	0.7
48	O=C(c1cccnc1)N1C[C@H]2[C@@H](c3ccccc31)[C@@H](CO)N2C(=O)Nc1ccccc1F	-16.6
49	COCC#Cc1ccc([C@H]2[C@H](CO)N3CCCCN(C(=O)NC4CCCC4)C[C@@H]23)cc1	3.9
50	O=C(C[C@H]1CC[C@@H]2[C@H](COC[C@@H](O)CN2Cc2ccc(F)cc2)O1)NCCc1ccccc1	1.7
51	C[C@@H]1CN([C@H](C)CO)C(=O)Cc2cc(NC(=O)NC3CCCCC3)ccc2O[C@H]1CN(C)S(=O)(=O)c1ccc(F)cc1	15.0
52	C[C@@H]1CN([C@@H](C)CO)C(=O)CCCn2nncc2CO[C@H]1CN(C)C(=O)Nc1ccccc1	0.3
53	C[C@@H]1CN([C@@H](C)CO)C(=O)c2cc(NS(C)(=O)=O)ccc2O[C@@H]1CN(C)C(=O)Nc1ccc2c(c1)OCO2	-13.4
54	OC[C@@H]1[C@H](c2ccc(Br)cc2)[C@@H]2CN(Cc3ccccn3)CCCCN12	-37.9
55	CCCNC(=O)[C@H]1[C@H](CO)[C@H]2Cn3c(ccc(-c4ccc(F)cc4)c3=O)[C@@H]1N2Cc1ccccc1F	21.3
56	C[C@H](CO)N1C[C@H](C)[C@H](CN(C)CC2CC2)Oc2c(NS(=O)(=O)c3ccccc3)cccc2C1=O	6.9
57	O=C(C[C@@H]1CC[C@H]2[C@@H](COC[C@H](O)CN2Cc2cccc(F)c2)O1)NCCc1ccncc1	-18.0
58	C[C@@H]1CN([C@H](C)CO)C(=O)c2cccc(NC(=O)C3CCCCC3)c2O[C@H]1CN(C)C(=O)Nc1ccc(F)cc1	10.4
59	C[C@@H]1CN([C@H](C)CO)C(=O)c2cc(NC(=O)CCCCCC(=O)Nc3ccccc3N)ccc2O[C@@H]1CN(C)Cc1ccc(Cl)c(Cl)c1	-4.6
60	CN1c2ccc(Br)cc2[C@@H]2[C@@H](CCN2S(=O)(=O)c2ccc(F)cc2)[C@H]1CO	0.0

New compounds follow
No.	smiles	Yeast UUG start
61	COc1cccc(S(=O)(=O)N2C[C@H](O)COC[C@H]3O[C@H](CC(=O)N4CCN(C)CC4)CC[C@@H]32)c1	-2.8
62	CC(C)CC#Cc1ccc2c(c1)O[C@@H](CN(C)Cc1ccccc1F)[C@H](C)CN([C@H](C)CO)S2(=O)=O	20.2
63	C[C@H](CO)N1C[C@H](C)[C@H](CN(C)S(=O)(=O)c2ccc(F)cc2)Oc2ccc(N(C)C)cc2CC1=O	4.7
64	CO[C@H]1CN(C)C(=O)c2ccc(NC(=O)C3CC3)cc2OC[C@@H](C)N(CCC(F)(F)F)C[C@@H]1C	13.3
65	C[C@@H]1CN([C@H](C)CO)C(=O)c2cc(NC(=O)NC3CCCCC3)ccc2O[C@@H]1CN(C)S(=O)(=O)c1ccc(Cl)cc1	-8.0
66	COCC(=O)N1C[C@@H](C)[C@H](OC)CN(C)C(=O)c2cc(NC(=O)c3ccc(F)cc3)ccc2OC[C@@H]1C	13.4
67	COC(=O)C[C@@H]1CC[C@H]2[C@@H](COc3ccc(NC(=O)c4cnccn4)cc3C(=O)N2C)O1	-16.0
68	CNC[C@H]1Oc2ccc(NC(=O)Nc3cccc4ccccc34)cc2C(=O)N([C@H](C)CO)C[C@@H]1C	1.7
69	CN1c2ccc(-c3ccccc3)cc2[C@@H]2[C@@H](CCN2C(=O)Cc2ccccc2)[C@H]1CO	-16.7
70	O=C(C[C@@H]1CC[C@@H]2[C@H](COC[C@H](O)CN2Cc2ccccc2F)O1)N[C@@H]1CCN(Cc2ccccc2)C1	-2.6
71	COc1cccc(C(=O)Nc2ccc3c(c2)C(=O)N(C)C[C@@H](OC)[C@@H](C)CN(C)[C@@H](C)CO3)c1	-4.3
72	CO[C@H]1CN(C)C(=O)c2ccc(NC(=O)C3CC3)cc2OC[C@H](C)N(C(=O)Cc2ccccn2)C[C@@H]1C	2.0
73	COc1ccc(CN(C)C[C@H]2Oc3c(NC(=O)NC(C)C)cccc3C(=O)N([C@@H](C)CO)C[C@@H]2C)cc1	-1.0
74	Cc1noc(C)c1NC(=O)Nc1ccc2c(c1)C(=O)N([C@@H](C)CO)C[C@@H](C)[C@H](CN(C)Cc1ccc(Oc3ccccc3)cc1)O2	-2.3
75	C[C@H]1CN([C@@H](C)CO)C(=O)c2cc(NC(=O)C3CC3)ccc2O[C@H]1CN(C)S(=O)(=O)c1ccccc1	24.6
76	O=C(Cc1ccccc1)N1C[C@H]2[C@@H](c3ccccc31)[C@@H](CO)N2C(=O)c1ccc(F)cc1	108.9*
77	C/C=C/c1ccc([C@H]2[C@H](CO)N[C@H]2CN(CC(C)C)C(=O)c2ccccn2)cc1	-14.2
78	COc1ccc(NC(=O)N(C)C[C@@H]2OCc3ccccc3-c3ccccc3C(=O)N([C@@H](C)CO)C[C@@H]2C)c(OC)c1	0.4
79	CCC(=O)N(C)C[C@@H]1[C@H](c2ccc(C3=CCCC3)cc2)[C@H](CO)N1C(=O)CC	0.8
80	CCCN(C)C[C@@H]1OCc2cn(nn2)CCCC(=O)N([C@H](C)CO)C[C@@H]1C	5.2
81	O=C(CN1CCOCC1)N1CC[C@@H]2[C@H](CO)Nc3ccc(Br)cc3[C@@H]21	6.2
82	Cc1noc(C)c1NC(=O)Nc1ccc2c(c1)C(=O)N([C@H](C)CO)C[C@@H](C)[C@@H](CN(C)Cc1ccc(-c3ccccc3)cc1)O2	-5.5
83	C[C@@H]1CN([C@@H](C)CO)C(=O)CCCn2cc(nn2)CO[C@@H]1CN(C)S(=O)(=O)c1ccc2c(c1)OCCCO2	-5.6
84	C[C@H](NC(=O)C[C@H]1C[C@@H]2c3cc(NC(=O)CC4CC4)ccc3O[C@@H]2[C@@H](CO)O1)c1ccccc1	1.1
85	CO[C@H]1CN(C)C(=O)c2ccc(NC(=O)c3ccccc3F)cc2OC[C@@H](C)N(CC2CCOCC2)C[C@H]1C	-12.2
86	C[C@H](CO)N1C[C@H](C)[C@@H](CN(C)C)Oc2c(NC(=O)c3cnccn3)cccc2C1=O	-4.5

An excerpt of these results, as labelled records.
74	Cc1noc(C)c1NC(=O)Nc1ccc2c(c1)C(=O)N([C@@H](C)CO)C[C@@H](C)[C@H](CN(C)Cc1ccc(Oc3ccccc3)cc1)O2
  Yeast UUG start: -2.3

75	C[C@H]1CN([C@@H](C)CO)C(=O)c2cc(NC(=O)C3CC3)ccc2O[C@H]1CN(C)S(=O)(=O)c1ccccc1
  Yeast UUG start: 24.6
